# Bioassay records from PubChem.
# GIRK2 act: GIRK2 channel activation | calls only for hits at 25 µM | HEK293-GIRK2 thallium flux, Thallos fluorescence | P48051 | 0.05% of 63,000 active;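 active means among the strongest 0.2% of first-round signals and kept after retests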;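 further: first round at about 10 µM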
# Target sequence (P48051 whole entry, looked up): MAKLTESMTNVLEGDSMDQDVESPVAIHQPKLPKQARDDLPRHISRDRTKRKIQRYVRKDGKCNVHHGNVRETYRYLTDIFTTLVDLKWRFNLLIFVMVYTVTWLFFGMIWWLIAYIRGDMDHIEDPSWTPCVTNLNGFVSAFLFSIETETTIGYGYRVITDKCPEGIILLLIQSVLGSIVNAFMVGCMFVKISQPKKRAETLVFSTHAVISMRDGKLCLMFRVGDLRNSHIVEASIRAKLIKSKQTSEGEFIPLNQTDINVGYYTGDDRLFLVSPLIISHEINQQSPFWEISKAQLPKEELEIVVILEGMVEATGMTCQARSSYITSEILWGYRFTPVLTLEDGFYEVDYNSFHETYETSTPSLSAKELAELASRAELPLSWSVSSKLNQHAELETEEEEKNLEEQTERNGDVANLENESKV
# Calls only; i = inactive. Some of the compounds tested; rates above refer to the full screens.
GIRK2 act	Compound
i	Cc1cc(OCC(=O)Nc2ccc(Br)cc2F)nc(N2CCCC(C)C2)n1 (centres undefined)
i	CC(=O)N1CCc2c(sc(NC(=O)Cc3ccccc3)c2-c2nc3ccccc3s2)C1
i	CCOc1ccccc1NC(=O)c1nnn(-c2cccc(C)c2)c1C
i	O=C(NCC#CCOc1ccc2c(c1)OCO2)NCc1cccs1
i	CC(=O)N1CCN(S(=O)(=O)c2cccc(C(=O)NCc3ccco3)c2)CC1
i	O=c1c([N+](=O)[O-])c(NCc2ccco2)c2ccccc2n1-c1ccccc1
i	Cc1ccc2[nH]c3c(=O)n(CCC(=O)Nc4ccc(C)c(C)c4)cnc3c2c1
i	COc1nc2ccc(Br)cc2cc1C(O)c1ccc(F)c(Cl)c1 (centres undefined)
i	O=C(NCC(O)c1ccoc1)C(=O)Nc1ccc(OC(F)(F)F)cc1 (centres undefined)
i	Cc1nnsc1C(=O)NCC1CCN(Cc2ccccc2)CC1
i	Cn1c(=O)c2c(nc(N3CCNCC3)n2CC(=O)c2ccc(Cl)cc2)n(C)c1=O
i	O=C(CSc1ccc(F)cc1)Nc1ccc2c(c1)CC(=O)N2
i	O=C(Nc1nnc(-c2ccco2)o1)Nc1cccs1
i	CC(C)N1CCc2c(sc(NC(=O)C(C)(C)C)c2-c2nc3ccccc3s2)C1
i	COc1ccc(-c2cc(-c3nc(-c4ccc(OC)c(OC)c4)no3)[nH]n2)c(OC)c1
i	CS(=O)(=O)N1CCCc2ccc(NC(=O)C(=O)NCC3CCN(C(=O)c4ccoc4)CC3)cc21
i	Cc1cc(S(=O)(=O)N2CCCSCC2CN(C)C)c(Cl)cc1Cl (centres undefined)
i	O=C(NCCN1CCN(c2ccc(F)cc2)CC1)C12CC3CC(CC(C3)C1)C2
i	CSc1ccccc1C(=O)NCCn1nc(C2CC2)n(-c2ccccc2)c1=O
i	COc1ccc(CC(=O)N(CCc2cccs2)Cc2ccco2)cc1OC

# Reformatted as labelled records: part of the list above.
O=C(Nc1nnc(-c2ccco2)o1)Nc1cccs1
  GIRK2 act: i
Cn1c(=O)c2c(nc(N3CCNCC3)n2CC(=O)c2ccc(Cl)cc2)n(C)c1=O
  GIRK2 act: i

# (more compounds)
GIRK2 act	Compound
i	CCOC(=O)C1CCCN(Cc2nc(-c3ccc(N4CCCCCC4)nc3)no2)C1 (centres undefined)
i	O=C(NCCc1ccccc1)N(Cc1ccsc1)CC(F)(F)F
i	COc1ccc(-c2cc3nc(C)cc(NCCCN4CCOCC4)n3n2)cc1OC
i	COC(=O)c1ccccc1NC(=O)c1nnn(-c2cccc(OC)c2)c1C
i	COc1ccc(/C=C2\SC(=S)N(c3cccc(C)c3C)C2=O)cc1OC
i	Cc1nnsc1C(=O)Nc1cnc(N2CCOCC2)nc1
i	Cc1ccc(C(=O)CSc2nccn(-c3ccc(C)c(C)c3)c2=O)cc1
i	O=C(Nc1cccc(OC(F)F)c1)c1coc(NC(=O)C2CC2)n1
i	CC(Cc1ccco1)NC(=O)C1(c2ccccc2)CCOCC1 (centres undefined)
i	COc1cccc(CC(=O)NC2CCN(C(=O)c3cc(-c4ccc(F)cc4)n[nH]3)CC2)c1
i	Cc1cc(NC(=O)C2CCN(C(=O)c3ccc(-n4cccc4)cc3)CC2)no1
i	CCc1ccc(NC(=O)c2cn(Cc3ccc(NC(=O)c4ccccc4F)cc3)cn2)cc1
i	O=C(CCSc1ccccc1)NCC#CCOc1ccc2c(c1)OCO2
i	N#CC1=CN(c2ccc(OC(F)(F)F)cc2)c2ccccc2S1(=O)=O
i	O=C(O)CCC1(c2ccccc2)NC(=O)N(CC(=O)NC2CCCC2)C1=O (centres undefined)
i	Cn1c(C2CCC(CNC(=O)c3cnn(-c4ccccc4)n3)CC2)nc2ccccc21 (centres undefined)
i	CCc1ccccc1NC(=O)CSc1cc(-c2nc(C3CC3)no2)ccn1
i	O=c1n(CCNS(=O)(=O)C2CC2)nc(C2CC2)n1-c1ccccc1
i	O=C(c1ccc(C(F)(F)F)cc1)N1CCN(Cc2nnnn2-c2ccccc2)CC1
i	CC1(C)OCC2(CO1)CN(C(=O)CC1CCCC1)C2
i	CC(C)(C)c1noc(-c2ccc(-n3cnc(C(=O)NC4CCCC4)c3)nc2)n1
i	CSc1nc2ccc(NC(=O)Nc3cccs3)cc2s1
i	Cc1nc(SCc2ccc(F)cc2)[nH]c(=O)c1CC(=O)N1CCN(c2ccccc2Cl)CC1
i	O=S(=O)(NCC1(c2ccc(F)cc2)CC1)c1cc(F)ccc1F
i	COc1cc(Cl)c(C)cc1NC(=O)Cn1c(=O)n(C(C)C)c(=O)c2ccccc21
i	O=C(Nc1nccs1)C1CCN(S(=O)(=O)c2ccc(Cl)cc2)CC1
i	O=S(=O)(c1ccc(Br)cc1)N1CC(c2nc(-c3cnccn3)no2)C1
i	CSCCC(C)(O)CNC(=O)NCCc1ccccc1 (centres undefined)
i	Cc1nc2ccccn2c1C(=O)NCc1nc(-c2ccccc2)no1
i	CCn1cc(S(=O)(=O)c2ccc(OC)cc2)c(=O)c2cc(F)c(N3CC(C)CC(C)C3)cc21 (centres undefined)
i	O=C(c1ccc(CNS(=O)(=O)c2cccc(C(F)(F)F)c2)cc1)N1CCOCC1
i	Cc1ccc(S(=O)(=O)NCCC(O)C(C)(C)C)cc1C (centres undefined)
i	CC(=O)N1CCN(C(=O)c2cc(=O)c(OCc3ccc(F)cc3)co2)CC1
i	CC(C)NC(=O)CSc1ncc(-c2cccc([N+](=O)[O-])c2)n1-c1ccc(OC(F)F)cc1
i	CCC(C(=O)Nc1cc(N2CCOCC2)ncn1)c1ccccc1 (centres undefined)
i	CCOC(=O)c1sc2cccc(F)c2c1S(=O)(=O)Nc1cc(C)ccc1C
i	Cc1nccn1-c1ncc(NC(=O)c2cccc(Oc3ncccn3)c2)cn1
i	CC(=O)Oc1ccc2cc(-c3coc4cc(C)cc(C)c34)c(=O)oc2c1
i	O=C(Nc1cccs1)Nc1ccccc1-c1ccc(=O)[nH]n1
i	Cc1nn(-c2ncc(NC(=O)CC(C)C)cn2)c(C)c1C
i	O=C(NCc1ccc(F)cc1Cl)c1ccc(Oc2nccnc2N2CCSCC2)cc1
i	COC(=O)CSc1nnc(-c2cccc(S(=O)(=O)N3CCCCC3)c2)o1
i	CC(C)Sc1ccc(CC(=O)Nc2ccc3c(c2)C(=O)NCC3)cc1
i	Cn1nc(C(=O)Nc2cc(-n3cccn3)ncn2)ccc1=O
i	COCCN1CCC(NC(=O)c2cc3ccccc3o2)CC1
i	COc1cccc(-c2cc(=O)[nH]c(SCc3nc(-c4ccccc4OC)no3)n2)c1
i	Cc1nnc(C2CCCN(C(=O)NCc3ccc(F)cc3)C2)s1 (centres undefined)
i	COCCNC(=O)N1CCN(CC(=O)c2cccs2)CC1
i	CC1(C)C=Cc2c(cc3oc(-c4ccc(O)cc4)cc(=O)c3c2O)O1
i	Cc1cccc(-c2nnc3ccc(NS(=O)(=O)c4ccc(C)c(C)c4)nn23)c1
i	CC(=O)Cn1c(=O)c2c(nc3n(-c4ccccc4C)c(-c4ccccc4)cn23)n(C)c1=O
i	COc1nn(C)cc1C(=O)N1CCCSCC1CN1CCCC1 (centres undefined)
i	COC(=O)c1ccc(NC(=O)CN2CCc3nc(NC(=O)c4ccco4)sc3C2)cc1
i	CCCCS(=O)(=O)N1CCN(CC(O)c2cccs2)CC1 (centres undefined)
i	O=C(c1cccc(-n2cnnn2)c1)N1CCN(C(=O)C2CC2c2ccc(F)cc2)CC1 (centres undefined)
i	O=C(NCc1ccc(Cl)cc1)c1nnn(Cc2cccc(F)c2)c1-n1cccc1
i	CCn1c(=NC(C)=O)sc2cc(F)ccc21
i	COc1ccc(OCc2noc(CNS(C)(=O)=O)n2)cc1
i	COc1ccc(CNC(=O)NCc2ccc(C(=O)c3cccs3)s2)cc1
i	CCOc1cn(C)c(C(=O)Nc2ccc(C)c(Cl)c2)cc1=O

# The list goes on.
GIRK2 act	Compound
i	N#C/C(C(=O)NCc1ccco1)=C1/N=C(NC(=O)c2ccccc2)c2ccccc21
i	Cc1noc(-c2ccc(N3CCCC(C(=O)NC(C)c4ccccn4)C3)nc2)n1 (centres undefined)
i	CC(C)(C)C(O)CCNC(=O)C(c1ccccc1)c1ccccc1 (centres undefined)
i	O=C(Nc1cccc(Cl)c1)Nc1cc(N2CCCCC2)ncn1
i	COc1ccc(N2Cc3cc(Br)ccc3OCC2=O)cc1OC
i	CCN(Cc1ccccc1)S(=O)(=O)c1ccc(C(=O)Nc2ccccc2S(C)(=O)=O)cc1
i	COc1ccc2c(c1)c(CC(=O)SC[C@H](NC(C)=O)C(=O)OCCCCO[N+](=O)[O-])c(C)n2C(=O)c1ccc(Cl)cc1
i	CCOC(=O)c1[nH]c(C)c(C(O)=C2C(=O)C(=O)N(CCN(C)C)C2c2ccccc2)c1C (centres undefined)
i	CCOc1ccc(NC(=O)CSc2nnc(N3CCN(C)CC3)s2)cc1
i	CC(Nc1nc(Nc2ccc(F)cc2)c2n[nH]nc2n1)c1ccccc1 (centres undefined)
i	Cc1noc(C2CN(Cc3cc(Br)ccc3F)C2)n1
i	Cc1ccc(NC(=O)CCc2nc3sc4c(c3c(=O)[nH]2)CCCCC4)cc1F
i	O=C(CN1C(=O)CCC1=O)NCc1ccsc1
i	COc1ccc(-c2ccc(N3CCN(C(=O)Nc4ccc(F)c(Cl)c4)CC3)nn2)cc1
i	CCc1noc(-c2cc(=O)n(CC(=O)NCc3ccc(OC)cc3)c3ccccc23)n1
i	Cc1nc(SCc2ccccc2F)[nH]c(=O)c1CC(=O)NCc1ccco1
i	C=C(C)C(=O)O[C@H]1C[C@]23O[C@@H]2CC/C(=C/[C@H]2OC(=O)C(=C)[C@H]12)COC3O (some centres undefined)
i	O=C(CCCS(=O)(=O)Cc1ccccc1)Nc1nc2c(s1)Cc1ccccc1-2
i	CCn1c(N(C)Cc2ccccc2)nc2c1c(=O)n(C)c(=O)n2C
i	O=S(=O)(Cc1ccc(F)cc1)N(CCc1cccs1)Cc1ccco1
i	O=C(NCc1cccs1)N1CCN(c2nc3ccccc3n2Cc2ccccc2)CC1
i	O=C(c1c(F)cccc1F)N(C(=O)N1CCCCC1)c1ccccc1
i	COC(=O)c1cccc(NC(=O)CSc2nccn2-c2cccc(C(=O)Nc3ccccc3)c2)c1
i	O=c1[nH]c(=S)c2c(n1CCO)CCCC2
i	COCCCn1c(C(=O)NCCN2CCOCC2)cc2c(=O)n3ccccc3nc21
i	COc1ccc(OCc2ccc(-c3nc(C#N)c(NCCN(C)C)o3)o2)cc1
i	COCC(=O)NCC(Cc1cccc(F)c1)N1CCCCC1=O (centres undefined)
i	COc1ccc(-c2nc(CSc3nc4ccccc4n4c(C)nnc34)c(C)o2)cc1
i	Cc1nc(-c2nnc(NC(=O)C3c4ccccc4Oc4ccccc43)o2)cs1
i	CN(C)S(=O)(=O)c1ccc(C(=O)N2CC(c3nc(-c4cccs4)no3)C2)cc1
i	COc1ccc(NC(=O)NCCNc2ccc(C)nn2)cc1Cl
i	O=C(CN1N=NC2C(=O)N(c3ccc(F)c(F)c3)C(=O)C21)Nc1cccc(Cl)c1 (centres undefined)
i	Cn1c(SCC(=O)Nc2nc3ccccc3s2)nnc1-c1ccc(=O)n(C)c1
i	O=C(Cc1ccc(-c2ccccc2)cc1)Nc1cc(C2CC2)nn1-c1nc2c(c(=O)[nH]1)CCCC2
i	CCN1C(=O)CCc2cc(NC(=O)c3ccc(OC(C)C)cc3)ccc21
i	COc1ccc(NC(=O)Cn2c(C)cc(C)c(-c3nc(-c4cccc(Cl)c4)no3)c2=O)cc1OC
i	Cc1nnc(SCC(=O)Nc2ccc3c(c2)OCO3)c2c1cnn2-c1ccc(F)cc1
i	COc1ccc(-c2noc(C3CC(=O)N(c4ccccc4)C3)n2)c(OC)c1 (centres undefined)
i	CN(C)c1cccc(C(=O)NCc2nn(C3CCCC3)c(=O)c3ccccc23)c1
i	COC(=O)c1ccc(NC(=O)c2csc3nc(-c4ccc(OC)cc4)cn23)cc1
i	O=C(NCc1ccc(F)cc1Cl)c1csc(C(=O)N2CCCC2)n1
i	CCOc1ccc(NS(=O)(=O)c2n[nH]c(C)c2C(=O)Nc2cccc(CC)c2)cc1
i	COCCCNC(=O)/C(C#N)=C1\N=C(NC(=O)c2ccc(F)cc2)c2ccccc21
i	COCCNC(=O)c1ccccc1-c1ccccc1C(N)=O
i	COc1ccc(C(=O)Nc2ccc3c(c2)CCC(=O)N3C)cc1
i	Cc1cc(NC(=O)c2ccccc2S(C)(=O)=O)n(-c2nc3ccccc3s2)n1
i	COc1cccc(C(=O)NC2CCN(C(=O)c3cn(-c4ccccc4)nn3)CC2)c1
i	O=C(NCCc1c[nH]c2ccccc12)c1cc(-c2ccc(F)cc2)c[nH]1
i	O=C(c1ccccc1C(F)(F)F)N1CCN(CC(O)C2CC2)CC1 (centres undefined)

# Compounds above that contain a Cl atom, in the order listed:
GIRK2 act	Compound
i	COc1nc2ccc(Br)cc2cc1C(O)c1ccc(F)c(Cl)c1 (centres undefined)
i	Cn1c(=O)c2c(nc(N3CCNCC3)n2CC(=O)c2ccc(Cl)cc2)n(C)c1=O
i	Cc1cc(S(=O)(=O)N2CCCSCC2CN(C)C)c(Cl)cc1Cl (centres undefined)
i	Cc1nc(SCc2ccc(F)cc2)[nH]c(=O)c1CC(=O)N1CCN(c2ccccc2Cl)CC1
i	COc1cc(Cl)c(C)cc1NC(=O)Cn1c(=O)n(C(C)C)c(=O)c2ccccc21
i	O=C(Nc1nccs1)C1CCN(S(=O)(=O)c2ccc(Cl)cc2)CC1
i	O=C(NCc1ccc(F)cc1Cl)c1ccc(Oc2nccnc2N2CCSCC2)cc1
i	O=C(NCc1ccc(Cl)cc1)c1nnn(Cc2cccc(F)c2)c1-n1cccc1
i	CCOc1cn(C)c(C(=O)Nc2ccc(C)c(Cl)c2)cc1=O
i	O=C(Nc1cccc(Cl)c1)Nc1cc(N2CCCCC2)ncn1
i	COc1ccc2c(c1)c(CC(=O)SC[C@H](NC(C)=O)C(=O)OCCCCO[N+](=O)[O-])c(C)n2C(=O)c1ccc(Cl)cc1
i	COc1ccc(-c2ccc(N3CCN(C(=O)Nc4ccc(F)c(Cl)c4)CC3)nn2)cc1
i	COc1ccc(NC(=O)NCCNc2ccc(C)nn2)cc1Cl
i	O=C(CN1N=NC2C(=O)N(c3ccc(F)c(F)c3)C(=O)C21)Nc1cccc(Cl)c1 (centres undefined)
i	COc1ccc(NC(=O)Cn2c(C)cc(C)c(-c3nc(-c4cccc(Cl)c4)no3)c2=O)cc1OC
i	O=C(NCc1ccc(F)cc1Cl)c1csc(C(=O)N2CCCC2)n1
